MT1-MMP act inh: blockers of MT1-MMP proenzyme processing, primary screen, HT1080 RFP-PRO-GFP cells, GFP/RFP fluorescence | GFP/RFP ratio fluorescence, overnight; percent of plate control window, DMSO zero | Matrix metalloproteinase-14 (Homo sapiens), P50281 | GFP/RFP ratio change, % at 20 µM | 360,000 compounds, 0.061% hits;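 active means GFP/RFP ratio change of at least 30% with cell ATP level not reduced by more than half and red fluorescence within 50% of control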; further: strong numbers were not always called active
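Material: RFP-PRO-GFP reporter HT1080 cells. Dosing: single-point 20 µM compound, 1% DMSO. Controls: DMSO and RFP-L50D-GFP cell wells. Timing: cells overnight before dosing, compound overnight, 37 °C, 5% CO2. Measure: GFP/RFP fluorescence ratio.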
CSC inhib: cancer stem cell viability inhibitors, primary screen, luminescence; 300,000 compounds, 1.1% hits; cancer stem cell-like cells viability; inhibition, % at 7.5 µM;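 active means mean at 75% or more and at least half the replicates too; inconclusive means mean and replicates disagree; tested in HMLE shEcad cells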;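 further: 0% = median of negative and 100% = median of positive control wells; the first replicate is given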
Rce1 inhib: yeast Rce1p protease inhibitors, primary screen, biochemical, fluorescence, cell-free homogeneous | CAAX prenyl protease 2 (Saccharomyces cerevisiae (strain ATCC 204508 / S288c)), Q03530 | yeast membranes, quenched prenylated peptide cleavage fluorescence | calls only | 290,000 compounds, 0.27% hits | AID 2563, 2010;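 active means fall in fluorescence gain of 50% or more versus controls, with final raw signal at or below 3038400; inconclusive means same 50% fall but final raw signal above 3038400; inactive means fall in fluorescence gain under 50%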;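 further: plate controls were neutral control wells for no effect and wells lacking membranes for full effect; tested at 10 µM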
eIF4H inh: human eIF4H binding inhibitors, primary screen, translation initiation inhibitor project, biochemical, uHTS, fluorescence polarization; 290,000 compounds, 0.94% hits; eIF4H fluorescence polarization binding assay; inhibition, % at 35 µM; AID 2012, 2009;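 active means 50% or more with normal probe brightness, or confirmed in later tests; inconclusive means above 50% with abnormal brightness, or retests that disagree; inactive means below 50% or failed in later tests; about a fifth of its hits are not listed in these tables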;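 further: calls also rest on retests at 20 µM and on dose response follow-up; 0% = protein and probe with vehicle and 100% = probe without protein; strong numbers were not always called active; many hits fall short of the cut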
PABP FP inh: PABP poly(A) RNA binding inhibitors, primary screen, biochemical, fluorescence polarization, uHTS | AID 2014, 2009 | inhibition, % at 35 µM | 290,000 compounds, 1% hits;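 active means 50% or more with normal probe brightness, or confirmed in later tests; inconclusive means above 50% with abnormal brightness, or retests that disagree; inactive means below 50% or failed in later tests; about a fifth of its hits are not listed in these tables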;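 further: calls also rest on retests at 20 µM and on dose response follow-up; controls were probe without protein and protein plus probe with vehicle; some compounds called inactive have numbers as strong as hits; many hits fall short of the cut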
Target sequence (P11940 whole entry, looked up): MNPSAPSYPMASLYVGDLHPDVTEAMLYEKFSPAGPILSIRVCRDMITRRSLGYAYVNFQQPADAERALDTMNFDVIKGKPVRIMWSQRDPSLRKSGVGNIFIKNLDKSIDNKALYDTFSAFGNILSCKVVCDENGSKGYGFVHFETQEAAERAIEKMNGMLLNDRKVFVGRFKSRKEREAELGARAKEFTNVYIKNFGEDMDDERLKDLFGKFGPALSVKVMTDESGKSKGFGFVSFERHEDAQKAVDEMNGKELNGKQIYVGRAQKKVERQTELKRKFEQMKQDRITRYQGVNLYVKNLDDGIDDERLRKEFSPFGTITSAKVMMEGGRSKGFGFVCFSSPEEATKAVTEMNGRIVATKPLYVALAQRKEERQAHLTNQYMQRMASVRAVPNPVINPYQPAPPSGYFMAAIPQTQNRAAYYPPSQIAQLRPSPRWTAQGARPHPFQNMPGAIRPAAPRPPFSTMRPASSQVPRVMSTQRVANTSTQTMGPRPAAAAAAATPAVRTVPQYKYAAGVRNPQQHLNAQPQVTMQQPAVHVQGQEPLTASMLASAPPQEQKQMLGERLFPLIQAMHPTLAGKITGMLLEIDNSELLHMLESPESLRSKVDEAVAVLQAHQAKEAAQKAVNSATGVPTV
Env fusion inh: inhibitors of HIV-1 Env-driven cell-cell fusion, primary screen, HeLa-JRFL effector, CEM21 target cells, luciferase; AID 651610, 2012; inhibition, % at 12.3 µM; 360,000 compounds, 1.1% hits;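 active means mean replicate inhibition score of at least 50 and every replicate individually at or above 50; inconclusive means only one of the two criteria met; inactive means mean below 50 and not all replicates reaching 50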;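 further: 0% = plate neutral controls and 100% = maraviroc near 300 nM; one replicate is shown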
UUG fidelity: modulators of yeast start codon fidelity, primary screen, whole organism, S. cerevisiae, single point, plate reader. S. cerevisiae UUG-firefly luciferase reporter, luminescence/redox ratio. activity score, % at 18.7 µM. 350,000 compounds, 0.13% hits. AID 602363, 2012;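 active means replicate mean at a twofold rise or more, about +100% in these data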;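 further: firefly luciferase made from a UUG start codon reports start codon fidelity; reporter light over untreated wells divided by growth signal over untreated wells; some hits fall short of that in this replicate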
eIF4H inh retest: also measured in eIF4H inh; calls as there; inhibition, %; compound at 20 µM; confirmation average;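 mean of two retest wells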
PABP FP inh retest: second read-out of PABP FP inh, no call of its own (marks repeat the call); inhibition, %; compound at 20 µM; confirmation repeats;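 mean of two retest wells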
MT1-MMP act inh RFP: second read-out of MT1-MMP act inh, no call of its own (marks repeat the call); RFP signal change, %; measured here: RFP expression control read;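 0 = vehicle wells; hits needed this value within 50% of zero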
The depositor's hits bear a star; i = inactive; ? = inconclusive; . = no result given. The list is partial (hit frequency here may not be typical).

SMILES | MT1-MMP act inh | MT1-MMP act inh RFP | CSC inhib | Rce1 inhib | eIF4H inh | PABP FP inh | Env fusion inh | UUG fidelity | others
COc1ccc(C(=O)CC(C(=O)O)c2ccc(OC)c(OC)c2)cc1OC (stereo not drawn) | 1 | 6 | . | . | . | . | -14 | -8
O=C(CNS(=O)(=O)c1ccccc1)OCC(=O)c1ccc(Br)cc1 | -5 | -4 | -8 | i | -5 | -6 | -3 | -22
CC(NC(=O)COC(=O)CCN1C(=O)C2CC=CCC2C1=O)c1ccc(Br)cc1 (stereo not drawn) | 5 | 0 | -8 | . | . | . | 7 | -10
COc1ccc(NC(=O)NN2CCN(C)CC2)cc1OC | 1 | 8 | -10 | i | 2 | 2 | 4 | -2
COc1ccc(-n2nc3c(=O)[nH][nH]c3cc2=O)cc1 | 5 | 2 | -10 | i | 90 | -10 | -4 | -6 | eIF4H inh retest=-12;PABP FP inh retest=6
CCCNC(=O)CN1C(=O)NC2(CCCc3cc(OC)ccc32)C1=O (stereo not drawn) | -4 | -1 | -4 | i | -13 | -6 | -36 | 6
O=C(CN1CCCC1)Nc1sc2c(c1C(=O)Nc1ccc(Br)cc1)CCC2 | -4 | 2 | 12 | i | 7 | -2 | -10 | -5
CCN1c2ccccc2S(=O)(=O)c2ccccc21 | 0 | 2 | -2 | i | -11 | 1 | 14 | -13
CC1CCCC(NC(=O)c2cn(C)c3ccc(S(=O)(=O)N4CCCC4)cc3c2=O)C1C (stereo not drawn) | . | . | 21 | i | -4 | 19 | -15 | .
COc1ccc2nc(NC(=O)CSc3nc(C)cc(C)n3)sc2c1 | 1 | -6 | 8 | i | 1 | -14 | -16 | -10
NC(=O)c1ccc(OCC(F)(F)C(F)(F)C(F)(F)C(F)(F)C(F)(F)C(F)F)cc1 | 0 | -8 | -13 | i | 8 | 3 | . | -9
Cc1ccc(/C=C2\CC(C)CC3=C2NC(=S)NC3c2ccc(C)cc2)cc1 (stereo not drawn) | 2 | 2 | 14 | i | 4 | 10 | 32 | .
COc1ccc(OCC(=O)N/N=C/c2ccc(O[C@@H]3O[C@H](CO)[C@@H](O)[C@H](O)[C@H]3O)cc2)cc1 | 8 | 1 | -6 | i | -2 | -2 | -11 | -19
Cc1c(CN2CCCC(CO)(Cc3cccc(Cl)c3)C2)cnn1C (stereo not drawn) | -5 | -3 | . | i | -3 | -4 | -8 | -8
Cc1noc(C)c1COc1ccc(C(=O)OCC(=O)N2CC(=O)Nc3ccccc32)cc1 | 6 | 2 | -4 | i | -1 | 0 | -23 | 6
COC(=O)c1ccc(NC(=S)NCCC2=CCCCC2)cc1 | 17 | -12 | -9 | i | 2 | 2 | ? | -30
Cn1c(=O)cc(OCC(=O)NCc2ccccn2)c2ccccc21 | 1 | 1 | -12 | i | 1 | 6 | -14 | -15
CCCn1c(COc2ccc(C(=O)O)cc2)nc2ccccc21 | 6 | 0 | -7 | i | -7 | 3 | 5 | -20
CCOC(=O)c1[nH]c(COC(=O)C2CC(=O)N(Cc3ccccc3)C2)c(C(=O)OCC)c1C (stereo not drawn) | 0 | 3 | -2 | i | 6 | 10 | -41 | 1
Cc1nc2ccc(NC(=O)CCC3CCCC3)cc2s1 | -3 | 0 | -11 | i | -4 | -7 | -3 | -26
Cc1cc(C)n(-c2nc3ccccc3nc2Nc2ccc(CC(=O)O)cc2)n1 | -1 | -3 | 4 | i | 10 | 14 | 21 | -21
CCn1c2ccccc2c2cc(NC(=O)CCCN3C(=O)CCC3=O)ccc21 | 3 | 4 | -8 | i | 6 | -3 | . | -7
COc1cccc(Nc2nc(C(N)CO)cs2)n1 (stereo not drawn) | -3 | 1 | . | . | . | . | 16 | -10
Nc1ccccc1C(=O)NNc1ncc(C(F)(F)F)cc1Cl | 2 | 5 | 2 | i | 0 | -1 | -1 | -2
N=C1C(c2ccccc2)=C(O)CN1NC(=O)c1ccc(Cl)cc1 | . | . | -14 | . | -6 | -3 | 6 | .
CCOc1ccc(C(C)=O)cc1NC(=O)/C=C\C(=O)O | 4 | 7 | -11 | . | 5 | 11 | 2 | -4
CCn1c(/C=C/Nc2ccccc2)[n+](CC)c2ccc(Cl)cc21 | -1 | 3 | -6 | i | 7 | 0 | -4 | .
COc1ccc(S(=O)(=O)N(C(=O)c2ccncc2)c2ccc3oc4c(c3c2)CCCC4)cc1 | -5 | -9 | 56 | i | -8 | 3 | 7 | -12
COc1cc(-n2c(=O)c3ccccc3n(CC(=O)c3ccc(Br)cc3)c2=O)cc(OC)c1OC | -3 | -2 | 0 | i | -3 | 24 | 4 | .
COc1cccc(-c2nnc(N)o2)c1 | 0 | 1 | -12 | i | 0 | 2 | -3 | -10
O=C(/C=C/c1ccccc1)N(c1ccccn1)C1CCCCC1 | -4 | -3 | -13 | i | -1 | -2 | -13 | -15
Cc1ccccc1NC(=O)/C(C#N)=C/c1ccccc1C(F)(F)F | -3 | 0 | -7 | i | 19 | 3 | 16 | .
O=C(c1nc2ccccn2c1CNCCn1ccc2ccccc21)N1CCOCC1 | -2 | 1 | . | i | 11 | 10 | 7 | -20
c1ccc(Cc2ccc(OCCN3CCOCC3)cc2)cc1 | 1 | -2 | 40 | i | 5 | -3 | -11 | -4
CCOc1cc(S(=O)(=O)N2CCN(C(=O)c3ccco3)CC2)ccc1F | 5 | -2 | -1 | i | 0 | -3 | 19 | -7
CCOC(=O)CCC(=O)N1CCOCCN(C(=O)CCC(=O)OCC)CCOCC1 | -6 | 5 | 3 | i | -8 | -8 | -20 | -10

The last 3 entries of the part before lead into the next:
SMILES | MT1-MMP act inh | MT1-MMP act inh RFP | CSC inhib | Rce1 inhib | eIF4H inh | PABP FP inh | Env fusion inh | UUG fidelity | others
c1ccc(Cc2ccc(OCCN3CCOCC3)cc2)cc1 | 1 | -2 | 40 | i | 5 | -3 | -11 | -4
CCOc1cc(S(=O)(=O)N2CCN(C(=O)c3ccco3)CC2)ccc1F | 5 | -2 | -1 | i | 0 | -3 | 19 | -7
CCOC(=O)CCC(=O)N1CCOCCN(C(=O)CCC(=O)OCC)CCOCC1 | -6 | 5 | 3 | i | -8 | -8 | -20 | -10
CCCOc1ccc(-c2cc3onc(-c4ccccc4)c3c(=O)n2C)cc1 | -5 | -22 | -11 | . | . | . | -2 | -19
O=C(CCCN1C(=O)/C(=C/c2cccs2)SC1=S)Nc1cc([N+](=O)[O-])ccc1O | 5 | -2 | 15 | i | 2 | -6 | 2 | -13
CCCCn1c(N)c(N(CC(C)C)C(=O)C2CSC3(C)CCC(=O)N23)c(=O)[nH]c1=O (stereo not drawn) | -1 | 0 | -9 | i | . | . | -2 | -15
CCN(CC)c1nc(N)c2c(N)n(-c3ccccc3C)c(=S)c(C#N)c2c1C#N | -80 | 1 | -6 | i | 2 | 5 | -46 | -29
O=C(N/N=C/c1ccccn1)c1cccc(S(=O)(=O)N2CCCC2)c1 | -2 | 5 | -7 | i | 13 | 4 | -10 | .
O=C(CSc1nc(C2CC2)nc2ccccc12)NCc1ccc2c(c1)OCO2 | . | . | -6 | i | -2 | -6 | . | .
CN(/N=C/c1cc(Br)cc(Br)c1O)c1cccc(C(F)(F)F)n1 | -5 | -10 | 103* | i | 8 | 2 | 19 | -18
Cc1cccc(NC(=O)C(C)C(=O)c2ccccc2)c1 (stereo not drawn) | 0 | 0 | -10 | i | 3 | -2 | 2 | -16
COc1ccccc1N(CC(=O)NC1CCCC1)C(=O)CCC(=O)Nc1ccccn1 | -1 | 0 | . | i | 1 | 7 | 1 | -5
CC(C)OP(=O)(c1ccc(N(C)C)cc1)C(O)c1ccccc1F (stereo not drawn) | 3 | 1 | . | i | -3 | 0 | -17 | -10
Cc1cccc(C(=O)N/N=C/c2ccc(OC3CSC3)cc2)c1 | 14 | 9 | 76* | i | -2 | -6 | . | .
CC(=O)NC(Cc1ccccc1)C(=O)NC1CCN(c2ncccc2[N+](=O)[O-])CC1 (stereo not drawn) | -2 | 2 | -8 | i | -14 | -7 | . | .
O=C1OC(N2C(=O)CC[C@H]2C(=O)Nc2ccc3c(c2)OCO3)c2ccccc21 (stereo partly drawn) | 0 | 0 | -6 | i | 10 | 22 | . | -8
COc1ccccc1NC(=O)C1CC(C(C)C)OC1=O (stereo not drawn) | 1 | 1 | -14 | i | . | . | -11 | -10
Cc1ccc(-c2nc(C)sc2CC(=O)Nc2nnc(C)s2)cc1 | 2 | 1 | 1 | i | -4 | -9 | 17 | -13
CN(Cc1nc(-c2cnccn2)no1)CC1CCN(Cc2ccccc2)CC1 | -3 | -2 | 3 | i | 2 | -13 | -1 | -19
Cc1nonc1OCCNCc1c(C(=O)N2CCCCCCC2)nc2ccc(Cl)cn12 | -1 | 1 | -8 | . | 19 | 9 | 5 | .
COc1ccc(NC(=O)c2c(-c3ccccc3)noc2C)c(OC)c1 | -4 | -4 | 18 | i | -15 | -11 | . | 4
COc1ccc(CNC(=O)c2ccc3c(=O)n4c(nc3c2)CCCCC4)cc1OC | -6 | -28 | . | . | . | . | 48 | -4
Cc1cc(C)cc(Nc2ccc(C(=O)O)cc2[N+](=O)[O-])c1 | 3 | -2 | -22 | i | -2 | 13 | 4 | 12
CCC(C)NS(=O)(=O)c1ccc(NC(=O)CCC2CCCCC2)cc1 (stereo not drawn) | 3 | 0 | -5 | i | 7 | 1 | 7 | -16
CCOc1ncccc1C(=O)OCC(=O)N1CCN(S(=O)(=O)c2ccccc2)CC1 | 1 | -2 | 0 | i | 2 | 0 | -27 | 0
Cc1c(Cl)cccc1NC(=O)CC(NCCN1CCOCC1)C(=O)O (stereo not drawn) | 1 | 4 | 2 | i | . | . | -5 | -8
CC(C)CCNC(=O)NC(=O)CN1C(=O)NC2(CCCCC2)C1=O | 1 | 2 | -9 | i | -5 | 3 | -12 | 3
CCOCCCNC(=O)C(NC(=O)c1ccc(=O)[nH]c1)c1ccc(Cl)cc1 (stereo not drawn) | 2 | 6 | -6 | i | 4 | 9 | -19 | -13
COc1ccc(NC(=O)COc2ccc(/C=N/O)cc2OC)cc1 | -3 | -3 | 1 | i | 2 | -13 | -14 | .
Cc1cc(N=NC(=O)c2ccccc2)ccc1O | -3 | 5 | -1 | i | 1 | 6 | -55 | .
O=C(Cn1cc(SCc2ccccc2Cl)c2ccccc21)N1CCOCC1 | -4 | -6 | 5 | i | 0 | -1 | . | 0
COCCn1c(SCC(=O)NCC2CCCO2)nc2c(c1=O)SCC2 (stereo not drawn) | 0 | 4 | 6 | i | 12 | -8 | 9 | -7
COc1cc(NC(=O)[C@H](C)NC(=O)N2CCn3c2nc2ccccc23)cc(OC)c1 | 6 | 2 | -17 | i | -1 | -1 | 2 | -4
Cc1ccc(SCC(=O)Nc2cccc(C)c2)cc1 | 4 | 9 | -18 | i | 3 | 2 | -4 | .

Screening results: PubChem, several laboratories
